Arbovirus anti = blocks arbovirus infection. arbovirus infection cell-based antiviral screen. actives 0.37% (n = 200,000). inhibition, % at 10 µM. AID 1251;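 active = inhibition from about 30%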;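 note: bluetongue infection of BSR cells; cell survival read as ATP light after 72 h; 0% = infected wells without compound and 100% = uninfected wells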
YopH inh = YopH (Yersinia) phosphatase inhibition. fluorescence Ex485/Em525. inhibition, %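 (about 10 µM by stock and volumes)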. actives 0.16% (n = 140,000). AID 898;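 active = inhibition of 50% or more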;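 note: controls were vehicle for no effect and minimum signal wells for full effect; inactives centre near -20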
Mtb bLac sens = beta-lactam sensitization of Mtb H37Rv; actives 0.27% (n = 330,000); M. tuberculosis H37Rv growth with meropenem, percent inhibition; hits of this screen are not shown here; inhibition, % at 25 µM;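 active = about 74% or more and at least 40 points above the plate without the antibiotic, then above 30% in a dose series; inconclusive = first-round hits that could not be retested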;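 note: growth measured after seven days incubation then overnight dye step; 0% = bacteria only wells and 100% = bacteria with antibiotic; twin plates without the antibiotic show which effects depend on it; some results filed as inactive read as strong as hits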
Mtb H37Rv = M. tuberculosis H37Rv growth inhibitors, H37Rv strain (AID 1626); M. tuberculosis H37Rv growth inhibition; higher % means a stronger effect; one-dose inhibition, % at 10 µM; IC50 in µM for titrated hits; actives 0.95% (n = 220,000);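 active = confirmed in a dose series; inconclusive = inhibition above 80% but not taken into the dose series; inactive = below 80% or under 30% at every dose of the series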;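 note: bacteria incubated seven days before Alamar blue readout; 0% = bacteria only wells and 100% = bacteria with antibiotic wells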
RecA splice inh = Mtb RecA intein splicing inhibition | P9WHJ3 | cell-free RecA intein splicing, fluorescence | inhibition, %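 (about 9 µM by stock and volumes)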 | actives 0.75% (n = 290,000) | AID 2221; in the data active = inhibition above about 30%; inconclusive = no clear call, values can overlap the other calls;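 note: 0% = vehicle wells and 100% = reference inhibitor control wells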
Target sequence (P9WHJ3 whole entry, looked up, canonical isoform): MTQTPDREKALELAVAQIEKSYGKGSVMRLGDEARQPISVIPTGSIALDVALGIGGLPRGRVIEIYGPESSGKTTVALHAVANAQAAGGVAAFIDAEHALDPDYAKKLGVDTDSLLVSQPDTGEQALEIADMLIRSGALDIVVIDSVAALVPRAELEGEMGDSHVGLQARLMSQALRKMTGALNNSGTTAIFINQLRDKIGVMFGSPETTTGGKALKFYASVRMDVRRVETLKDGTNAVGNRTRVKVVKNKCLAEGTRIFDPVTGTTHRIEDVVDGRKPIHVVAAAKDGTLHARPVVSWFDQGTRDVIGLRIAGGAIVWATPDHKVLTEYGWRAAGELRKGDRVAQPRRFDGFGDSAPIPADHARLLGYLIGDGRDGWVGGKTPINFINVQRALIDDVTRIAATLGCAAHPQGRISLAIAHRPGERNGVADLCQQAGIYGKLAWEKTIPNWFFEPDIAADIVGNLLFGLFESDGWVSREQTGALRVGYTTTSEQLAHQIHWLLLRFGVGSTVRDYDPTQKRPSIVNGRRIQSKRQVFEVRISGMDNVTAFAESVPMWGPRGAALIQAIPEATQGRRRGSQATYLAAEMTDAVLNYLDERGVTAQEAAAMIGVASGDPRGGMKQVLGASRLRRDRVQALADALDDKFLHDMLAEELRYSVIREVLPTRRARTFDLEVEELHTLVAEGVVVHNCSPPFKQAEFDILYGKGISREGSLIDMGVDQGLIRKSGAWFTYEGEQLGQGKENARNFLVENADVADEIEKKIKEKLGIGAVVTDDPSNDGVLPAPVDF
Arbovirus anti repeat = further read-out of Arbovirus anti, marked with its call; inhibition, %; measured here: 10K subset replicate screen; many hits read low in the repeat;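 first of two repeat runs on a subset; 0% = infected and 100% = uninfected wells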
Active calls of the source: *; ? = inconclusive; . = no result given.

SMILES	Arbovirus anti	YopH inh	Mtb bLac sens	Mtb H37Rv	RecA splice inh	others
O=C(NCCCn1ccnc1)c1cccc(Br)c1	.	.	-1	.	-2.2
CCN1CCN(C(=O)c2ccc(CSc3ccc(C)cc3)cc2)CC1	-12	-40	-1	-6%	2.6
CC(NS(=O)(=O)c1ccc(Cl)cc1)C(=O)NCc1ccco1 (centres undefined)	2	-19	-1	-10%	-0.9
COc1ccc(CCNCc2sccc2C)cc1OC	7	.	-11	-2%	-0.8
COc1cc(OC)cc(C(=O)Nc2cccc(C(C)=O)c2)c1	-5	-12	1	-5%	-1.3	Arbovirus anti repeat=-6
O=C(c1ccc(F)cc1)N1CCC2(CC1)OCCO2	.	.	-7	.	0.6
CCn1c(O)c(/C=N/N=C2CCCC2)c2ccc(C3=NNC(=O)CC3)cc21	-4	-28	1	-1%	-2.5
COc1ccc2c(c1OC)C(=O)OC2C/C(=N\NC(N)=O)c1ccccc1 (centres undefined)	6	.	0	-1%	0.9
CC(C)c1ccc(C(=O)N/N=C/c2cccc(Cl)c2Cl)cc1	3	-16	5	-6%	-2.3
CN(C)C(CNC(=O)C1CCN(C(=O)/C=C/c2ccccc2)CC1)c1ccccc1 (centres undefined)	.	.	-6	.	-1.5
CC(=O)c1c(C)[nH]c(C(=O)OCC(=O)C(C)(C)C)c1C	-9	-12	3	0%	2.0
CSc1ccccc1C(=O)NC1CCCCC1	6	-10	2	-2%	-1.9
Cc1cc(=O)[nH]c(N/N=C/c2c(C)nn(-c3ccccc3Cl)c2Cl)n1	0	.	1	7%	.
Cn1c(-c2cccs2)nc2ccccc21	-1	.	-5	4%	0.7
CCOc1cc(/C=N/NC(=O)CN2CCCCC2)ccc1OCc1ccc(Cl)cc1	2	1	1	15%	-1.2
CC(C)(C)C1CCC2(CC1)Nc1cccc3cccc(c13)N2	-14	-30	47	0%	-16
Cc1ccccc1-n1c(SCC(N)=O)nc2sc(-c3ccccc3)cc2c1=O	-2	3	73	7%	3.5
Cc1ccc(NCCC(=O)c2ccc(Cl)c(Cl)c2)cc1	6	-31	96	-8%	1.3
COc1ccc(NC(=O)CSc2nc3c(c(=O)n2-c2ccccc2)SCC3)c(OC)c1	-9	-29	10	.	1.3
Cc1ccc(C[n+]2ccccc2)cc1	.	.	-3	.	1.6
O=C(O)c1c(NC(=O)N(CCO)Cc2ccccc2)sc2c1CCCC2	.	.	-4	.	-1.7
Cc1ccc(-c2nsc(SCC(=O)NCc3ccc4c(c3)OCO4)n2)cc1	0	-20	2	13%	-2.2
Cc1ccccc1Cn1nnc(-c2ccc(C(=O)O)cc2)n1	0	.	-5	-6%	-1.4
COc1ccc(C2=CC3=CC(=O)C(C)(O)C(=O)C3=CO2)cc1 (centres undefined)	.	.	-9	9%	3.5
O=C(O)c1ccc(COc2ccc3c4c(c(=O)oc3c2)CCC4)o1	10	-54	-6	-6%	-8.3
CCCOc1cccc(C(=O)NCCNC(=O)c2cnccn2)c1	.	.	-5	.	3.6
CC(/C=C/c1ccccc1F)=N\NC(=O)C(C)C	2	-39	2	-4%	2.7
CCOCCCNC(=O)c1ccc2c(c1)ncn2C1CCCC1	1	-26	3	-4%	-3.5
Cc1cccc(C2CC(c3ccc(Cl)cc3)Nc3nc(N)nn32)c1 (centres undefined)	5	-18	?	3%	0.5	Arbovirus anti repeat=3
NC(=O)CC(NC(=O)c1ccc(Br)cc1)c1ccc(NC2CCCCCCC2)c([N+](=O)[O-])c1 (centres undefined)	.	.	94	.	-2.5
CSC1=NC(C(Cl)(Cl)Cl)N=C(c2ccccc2)N1 (centres undefined)	-6	.	-2	2%	2.0
COc1ccc(S(=O)(=O)NCc2cn3c(C)csc3n2)cc1F	-3	3	3	5%	3.8	Arbovirus anti repeat=4
COC(=O)C1C(c2ccc(OC)c(OC)c2)NC(c2ccc(OC)c(OC)c2)C(C(=O)OC)S1(=O)=O (centres undefined)	2	-13	-6	-2%	1.0
NS(=O)(=O)c1ccc(CCNC(=O)COC(=O)CCc2ccccc2)cc1	2	.	-5	2%	-2.3
CN1C(=O)N(C)C(=O)C2(Cc3ccccc3N3CCCC32)C1=O (centres undefined)	.	.	-11	-13%	-17
Cc1[nH]c2ccccc2c1CCN	7	-94	87	5%	2.7
Cn1cc(CCC(=O)N2CCCC(CCC(=O)NCc3ccccc3F)C2)cn1 (centres undefined)	-3	.	-8	-6%	-2.2
COc1ccc(OCCSc2nc(-c3ccccc3)cc(=O)[nH]2)cc1	0	.	-2	-1%	-1.4
COc1cccc(-n2c(C)cc(/C=C3/C(=N)N4C(=NC3=O)SN=C4S(C)(=O)=O)c2C)c1	40*	.	5	-4%	-15
COc1ccccc1NC(=O)CSc1nnc2ccc(-c3cccnc3)nn12	4	.	-8	-6%	-0.8
Cc1cc(C)cc(OCC(=O)N2Cc3ccccc3CC2C(=O)O)c1 (centres undefined)	5	.	-4	3%	1.3
Cn1c(=O)oc2cc(S(=O)(=O)CCC(=O)N3CCN(c4ccccc4F)CC3)ccc21	.	.	-3	.	-1.4
O=c1c(Cl)c(NCc2ccccc2)cnn1C12CC3CC(CC(C3)C1)C2	2	-20	-5	4%	-2.5
N#Cc1nnn(Cc2ccccc2)c1N	-7	.	-1	-8%	-1.8
CCC(C)N(C(=O)COC(=O)c1cc([N+](=O)[O-])ccc1N1CCOCC1)C1CCS(=O)(=O)C1 (centres undefined)	.	.	-4	.	2.0
Fc1ccccc1C1CC(c2ccco2)=Nc2ccccc2S1 (centres undefined)	.	.	81	-6%	-5.5
CN(C(=O)CSc1nc2c(cnn2-c2ccccc2)c(=O)[nH]1)C1CCS(=O)(=O)C1 (centres undefined)	3	.	2	-1%	2.3
COc1ccc(OC)c(C2=NOC(C(=O)Nc3cccnc3)C2)c1 (centres undefined)	5	-26	3	-3%	3.2
CCc1cccc(NC(=O)COC(=O)c2cc([N+](=O)[O-])ccc2N2CCOCC2)c1	.	.	4	.	-3.3
Nc1nc(Sc2ccc([N+](=O)[O-])cc2[N+](=O)[O-])n[nH]1	.	.	61	3%	-0.6

(more compounds)
SMILES	Arbovirus anti	YopH inh	Mtb bLac sens	Mtb H37Rv	RecA splice inh	others
CCOC(=O)c1ccccc1NC1c2ccccc2C(=O)N1C1CCN(C(=O)OCC)CC1 (centres undefined)	11	-4	6	12%	1.0	Arbovirus anti repeat=-11
O=S(=O)(NCC(O)c1ccccc1)c1cc(Cl)sc1Cl (centres undefined)	.	.	5	.	1.9
Cc1cccc(OCC(=O)NNc2c3ccccc3nc3ccccc23)c1	-1	-31	2	3%	-4.7
Cc1ccc(S(=O)(=O)N/N=C/c2ccc(OC3CSC3)cc2)cc1	-10	-24	16	-1%	-0.4
Cc1nn2c(=O)cc(CSc3ccccc3NC(=O)c3ccccc3F)nc2s1	.	.	3	.	3.2
O=C(N/N=C/c1c[nH]c2ccccc12)c1ccncc1	7	-33	98	?	-0.7
CCOC(=O)C1=C(O)C(=O)N(c2ccc(S(N)(=O)=O)cc2)C1c1ccc(OC)cc1OC (centres undefined)	4	-32	9	2%	1.4
COc1ccc(NC(=O)CSc2nc3[nH]ncc3c(=O)n2-c2ccccc2C)cc1OC	8	-8	-2	3%	0.0
CCOC(=O)c1[nH]ncc1CN1CCCC(C(=O)c2cccc(OC(C)C)c2)C1 (centres undefined)	11	.	-4	4%	-2.0
O=C(CN1C(=O)NC2(CCc3ccccc32)C1=O)NCC(F)(F)F (centres undefined)	.	.	-3	.	-0.1
Cc1cccc(C)c1NC(=O)CN(C)C(=O)c1cc(S(=O)(=O)N(C)C)ccc1N1CCCC1	.	.	2	.	-1.5
COc1cc(OC)cc(C(=O)N[C@@H](CCSC)c2nc3ccccc3[nH]2)c1	0	.	0	4%	0.3
CC(=O)c1ccc(OC2OCCOC2Oc2ccc(C(C)=O)cc2)cc1 (centres undefined)	-2	-29	8	9%	1.5
O=C(O)CCc1ccc(-c2cccs2)n1NC(=O)c1ccco1	4	-11	-1	-1%	-3.1
COc1cc(NC(=O)c2ccccc2OCc2ccccc2)cc(OC)c1OC	.	.	6	.	2.3
CN1CCN(CCCNC(=O)c2ccc3c(=O)n(CCc4ccccc4)c(=O)[nH]c3c2)CC1	.	.	-10	.	-0.7
N#CC12CCCCC1CC1CCCCC1(C#N)N2Cc1ccccn1 (centres undefined)	14	-27	-3	-12%	-2.4
Fc1cccc(F)c1-c1nc(-c2ccncc2)no1	.	.	5	.	1.7
NNC(=O)c1cc2sccc2s1	.	.	1	-7%	0.4
CCOc1ccc(S(=O)(=O)N(C(=O)c2ccco2)c2cc3sc(=O)oc3c3ccccc23)cc1	-17	-22	.	10%	-2.6
CC1(C)CC(=O)C(C=NCC2CCN(C(=S)Nc3ccccc3)CC2)=C(O)C1	.	.	-11	-2%	-1.6
CCC(C)(C)n1nnnc1C(c1cc2cccc(C)c2[nH]c1=O)N1CCN(C(=O)c2ccco2)CC1 (centres undefined)	-7	-43	-11	-4%	-2.0
CCCCCCCn1ccc(=N)cc1	1	-17	1	-1%	-2.8
C=C1[C@@H](C)[C@H]2[C@H](Cc3ccccc3)NC(=O)[C@]23OC(=O)/C=C/[C@H](O)CCC[C@@H](C)C/C=C/[C@H]3[C@@H]1O	12	.	5	2%	0.8
O=C(c1ccc(C(F)(F)F)cc1)C1CCCN(C(=O)c2cnccn2)C1 (centres undefined)	7	.	-8	-4%	0.4
O=C(Cc1ccccc1)NCc1ccc(F)cc1	-3	-17	-1	10%	-2.8
CC(C)NC(=O)NC(=O)CSc1nnc(-c2c[nH]c3ccccc23)o1	.	.	0	.	-2.0
CC(C)N1CCNCC1	9	.	-6	7%	-3.9
COC(=O)c1nnn(-c2nc(N(C)C)nc(N(C)C)n2)c1C	6	.	-7	3%	.
COc1ccc2c(-c3cc4ccc(OCc5ccc(F)cc5)cc4oc3=O)cc(=O)oc2c1	-10	-2	19	-2%	-2.8

6 consecutive compounds from above, quoted:
SMILES	Arbovirus anti	YopH inh	Mtb bLac sens	Mtb H37Rv	RecA splice inh	others
O=C(NCCCn1ccnc1)c1cccc(Br)c1	.	.	-1	.	-2.2
CCN1CCN(C(=O)c2ccc(CSc3ccc(C)cc3)cc2)CC1	-12	-40	-1	-6%	2.6
CC(NS(=O)(=O)c1ccc(Cl)cc1)C(=O)NCc1ccco1 (centres undefined)	2	-19	-1	-10%	-0.9
COc1ccc(CCNCc2sccc2C)cc1OC	7	.	-11	-2%	-0.8
COc1cc(OC)cc(C(=O)Nc2cccc(C(C)=O)c2)c1	-5	-12	1	-5%	-1.3	Arbovirus anti repeat=-6
O=C(c1ccc(F)cc1)N1CCC2(CC1)OCCO2	.	.	-7	.	0.6

The list goes on.
SMILES	Arbovirus anti	YopH inh	Mtb bLac sens	Mtb H37Rv	RecA splice inh	others
O=C(CCl)N1N=C(c2ccco2)CC1c1ccco1 (centres undefined)	.	.	99	.	54*
COCCNc1nc(C)cc(-c2cc(-c3ccc(Cl)cc3)on2)n1	.	.	11	-3%	1.6
Cn1c(C(=O)NCc2ccccn2)cc2c(=O)n(C)c3ccccc3c21	1	-3	1	-7%	1.4	Arbovirus anti repeat=-6
O=S(=O)(Nc1cccc2nsnc12)c1ccccc1	7	-41	1	1%	.
Nc1nnnn1/N=C/c1cccc(Br)c1	.	.	3	.	-2.8
N#Cc1ccc(C(=O)NC23CC4CC(CC(C4)C2)C3)cc1	.	.	-2	.	-2.9
COCCNC(=S)Nc1cc(OC)c(NC(=O)c2ccco2)cc1OC	6	.	3	-3%	-0.4
COc1ccc(S(=O)(=O)N2CCN(Cc3ccc4c(c3)OCO4)CC2)c2ccccc12	-7	-40	-1	3%	0.2
Oc1c(C=Nc2ccccc2)sc(=S)n1Cc1ccccc1	-9	.	-2	-10%	-2.9
Cc1ccc(-n2cc(-c3ccccc3)c3c(=O)[nH]cnc32)cc1	-38	-29	8	7%	9.1
O=C(COc1ccc2c3c(c(=O)oc2c1)CCCC3)NCCN1CCOCC1	.	.	-6	.	-4.3
CN(Cc1ccccc1)S(=O)(=O)c1ccc(NC(=S)NC(=O)C(C)(C)C)cc1	0	-7	-7	9%	5.4
COc1ccc(NC(=O)CSc2nc(=O)n(CCN(C)C)c3c2CCCC3)cc1OC	.	.	-7	.	1.7
CC1C(=O)C(C)C(c2ccco2)NC1c1ccco1 (centres undefined)	-4	-43	3	-8%	0.0
O=C(Nc1c(Cl)ccc2nsnc12)c1ccc([N+](=O)[O-])o1	.	.	100	.	2.8
CC(/C=N/n1c(-c2ccco2)n[nH]c1=S)=C\c1ccccc1	-3	-11	-2	6%	-0.5
Oc1ccc(-c2csc(-c3cccnc3)n2)cc1O	.	.	-5	.	-2.9

Some of the compounds tested (hit frequency here may not be typical).
